# Compound activity deposited in PubChem by several laboratories.
# CSC inhib – blocks cancer stem cells; cancer stem cell-like cells viability, luminescence; inhibition, % at 7.5 µM; actives 1.1% (n = 300,000); AID 2717;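 active = mean at 75% or more and at least half the replicates too; tested in HMLE shEcad cells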;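 also: 0% = median of negative and 100% = median of positive control wells; the first replicate is given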
# HIV Env fusion – inhibitors of HIV Env-mediated cell fusion | HeLa-JRFL Env/CEM21 cell fusion, luciferase | inhibition, % at 12.3 µM | AID 651610 | actives 1.1% (n = 360,000);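 active = mean replicate inhibition score of at least 50 and every replicate individually at or above 50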;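 also: 0% = plate neutral controls and 100% = maraviroc near 300 nM; one replicate is shown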
# Rce1 inh – blocks yeast Ras-converting enzyme; yeast membranes, quenched prenylated peptide cleavage fluorescence; calls only; actives 0.27% (n = 290,000); AID 2563;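 active = fall in fluorescence gain of 50% or more versus controls, with final raw signal at or below 3038400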;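 also: plate controls were neutral control wells for no effect and wells lacking membranes for full effect; tested at 10 µM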
# Target sequence (Q03530 whole entry, looked up): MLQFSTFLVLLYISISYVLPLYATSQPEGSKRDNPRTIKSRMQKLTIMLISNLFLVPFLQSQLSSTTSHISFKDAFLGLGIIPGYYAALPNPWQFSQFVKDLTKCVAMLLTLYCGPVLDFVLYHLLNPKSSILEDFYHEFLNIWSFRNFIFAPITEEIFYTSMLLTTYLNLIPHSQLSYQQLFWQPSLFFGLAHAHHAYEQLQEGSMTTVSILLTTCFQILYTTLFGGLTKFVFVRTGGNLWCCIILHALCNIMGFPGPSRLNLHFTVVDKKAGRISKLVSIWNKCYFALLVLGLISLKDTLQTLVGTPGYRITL
# Yeast UUG start – yeast start codon fidelity modulation | activity score, % at 18.7 µM | S. cerevisiae UUG-firefly luciferase reporter, luminescence/redox ratio | actives 0.13% (n = 350,000);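 active = replicate mean at a twofold rise or more, about +100% in these data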;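 also: firefly luciferase made from a UUG start codon reports start codon fidelity; reporter light over untreated wells divided by growth signal over untreated wells; some hits fall short of that in this replicate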
# PABP FP inh – PABP-poly(A) binding inhibition | P11940 | actives 1% (n = 290,000) | inhibition, % at 35 µM | PABP-poly(A) RNA binding, fluorescence polarization;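 active = 50% or more with normal probe brightness, or confirmed in later tests; about a fifth of its hits are not listed in these tables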;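 also: calls also rest on retests at 20 µM and on dose response follow-up; controls were probe without protein and protein plus probe with vehicle; some compounds called inactive have numbers as strong as hits; many hits fall short of the cut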
# Target sequence (P11940 whole entry, looked up): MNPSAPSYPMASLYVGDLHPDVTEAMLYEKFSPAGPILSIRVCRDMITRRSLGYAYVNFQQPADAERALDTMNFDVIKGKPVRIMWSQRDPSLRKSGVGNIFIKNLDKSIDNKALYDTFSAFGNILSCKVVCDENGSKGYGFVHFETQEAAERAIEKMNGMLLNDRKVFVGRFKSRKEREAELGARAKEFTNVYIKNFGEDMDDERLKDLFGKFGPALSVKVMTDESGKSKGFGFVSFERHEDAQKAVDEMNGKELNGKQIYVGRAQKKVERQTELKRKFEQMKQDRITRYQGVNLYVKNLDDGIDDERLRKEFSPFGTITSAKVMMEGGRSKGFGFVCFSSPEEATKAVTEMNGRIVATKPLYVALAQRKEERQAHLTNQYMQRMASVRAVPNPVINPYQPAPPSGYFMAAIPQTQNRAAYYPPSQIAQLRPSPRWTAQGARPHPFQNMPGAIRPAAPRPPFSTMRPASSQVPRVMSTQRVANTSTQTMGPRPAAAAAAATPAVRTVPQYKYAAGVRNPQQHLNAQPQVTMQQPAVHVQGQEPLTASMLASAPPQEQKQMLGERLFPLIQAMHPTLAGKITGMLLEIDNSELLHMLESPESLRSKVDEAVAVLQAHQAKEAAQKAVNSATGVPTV
# eIF4H inh – inhibitors of RNA binding by human eIF4H | eIF4H fluorescence polarization binding assay | inhibition, % at 35 µM | actives 0.94% (n = 290,000) | AID 2012 | Q15056;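 active = 50% or more with normal probe brightness, or confirmed in later tests; about a fifth of its hits are not listed in these tables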;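 also: calls also rest on retests at 20 µM and on dose response follow-up; 0% = protein and probe with vehicle and 100% = probe without protein; strong numbers were not always called active; many hits fall short of the cut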
# MT1-MMP act inh – inhibitors of human MT1-MMP activation; actives 0.061% (n = 360,000); P50281; GFP/RFP ratio change, % at 20 µM; HT1080 RFP-PRO-GFP cells, GFP/RFP ratio fluorescence, overnight; percent of plate control window, DMSO zero; AID 651647;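 active = GFP/RFP ratio change of at least 30% with cell ATP level not reduced by more than half and red fluorescence within 50% of control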; also: strong numbers were not always called active
#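 system = RFP-PRO-GFP reporter HT1080 cells | dosing = 20 µM single dose, 1% DMSO | timing = overnight cell settling, then overnight compound exposure, 37 °C, 5% CO2 | read-out basis = GFP/RFP fluorescence ratio | controls = DMSO and RFP-L50D-GFP cell wells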
# eIF4H inh retest – recorded beside eIF4H inh, whose call it bears; inhibition, %; compound at 20 µM; confirmation average;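 mean of two retest wells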
# PABP FP inh retest – also measured in PABP FP inh; calls as there; inhibition, %; compound at 20 µM; confirmation repeats;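 mean of two retest wells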
# MT1-MMP act inh RFP – recorded beside MT1-MMP act inh, whose call it bears; RFP signal change, %; measured here: RFP expression control read;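 0 = vehicle wells; hits needed this value within 50% of zero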
# The depositor's hits bear a star; i = inactive; x = no result given.
SMILES,CSC inhib,HIV Env fusion,Rce1 inh,Yeast UUG start,PABP FP inh,eIF4H inh,MT1-MMP act inh,MT1-MMP act inh RFP,others
COc1ccccc1NC(=O)NC1(C(=O)NCC2CCCO2)CCCCC1 (stereo unspecified),1,-9,i,-19,5,-4,1,-1,
CCCn1c(N)c(N(CCOC)C(=O)c2ccc(C#N)cc2)c(=O)[nH]c1=O,-15,-3,i,-2,-1,0,-2,0,
CC(=O)Nc1ccc(NC(=O)c2c(C)nc3ccccn23)cc1,14,x,i,-13,-4,-7,2,3,
Cc1nnc(SCC(=O)Nc2sc3c(c2C#N)CCCCC3)n1N,-12,x,i,-15,20,6,2,5,
COc1cc(NC(=O)CSc2nnc3ccc(-c4ccncc4)nn23)cc(OC)c1,x,6,i,x,33,-7,-5,1,
O=C1CSc2ccc(C(=O)NCC(c3ccco3)N3CCCCC3)cc2N1 (stereo unspecified),-11,1,i,x,-8,-1,-2,4,
C=CCNC(=O)NC(=O)COC(=O)/C=C/c1cccc([N+](=O)[O-])c1,-9,19,i,x,-5,1,-7,2,
Cc1ccc(C(C)(c2ccc(N)cc2)c2ccc(N)cc2)cc1,4,8,i,-15,x,x,4,2,
COc1ccc(C(=O)Nc2cccc(OC(=O)c3ccc(C)c(C)c3)c2)cc1,10,x,i,-13,3,5,0,-2,
Cc1cc(C(=O)Nc2cccc(/C=C/C(=O)O)c2)c(C)o1,-2,-36,i,-14,15,10,-1,-1,
CCN(CC)S(=O)(=O)c1ccc(NC(=O)c2ccc(Cl)nc2)cc1,-14,-2,i,-6,0,-1,-2,-9,
Cc1cc(Cl)ccc1C(=O)C1CCCN(C(=O)c2ccsc2)C1 (stereo unspecified),8,16,i,10,5,-2,-3,0,
COc1ccc(-n2c(COc3ccc(C)cc3)nnc2SCc2ccc(C#N)cc2)cc1,6,x,i,3,-8,-6,-9,-11,
Cc1cc(-c2n[nH]c(=S)n2/N=C/c2ccco2)n[nH]1,8,-10,i,x,11,26,-2,0,
O=C(NC1CCSc2ccccc21)c1ccccc1F (stereo unspecified),-7,-48,i,-5,1,-9,-1,1,
CCOC(=O)Cc1nnc(NC(=O)CSc2ncc(-c3ccccc3)nn2)s1,-13,13,i,-6,-4,1,1,-5,
O=C(O)c1ccc(Cl)c(NC(=O)C2CCN(S(=O)(=O)c3cccs3)CC2)c1,x,17,x,-6,x,x,6,11,
Cc1cc(C)c2nc(N3CCN(C)CC3)c(C#N)cc2c1,x,-54,i,-16,9,5,-9,-4,
S=c1[nH]nc(CCSCc2ccccc2)n1-c1ccccc1,-18,4,i,x,-10,-2,-3,-5,
CCC(CC)c1nnc(NC(=O)c2cc(-c3ccccc3)nc3ccccc23)s1,39,x,i,x,6,-9,3,0,

# Among those listed so far, these contain a cyano group.
SMILES,CSC inhib,HIV Env fusion,Rce1 inh,Yeast UUG start,PABP FP inh,eIF4H inh,MT1-MMP act inh,MT1-MMP act inh RFP,others
CCCn1c(N)c(N(CCOC)C(=O)c2ccc(C#N)cc2)c(=O)[nH]c1=O,-15,-3,i,-2,-1,0,-2,0,
Cc1nnc(SCC(=O)Nc2sc3c(c2C#N)CCCCC3)n1N,-12,x,i,-15,20,6,2,5,
COc1ccc(-n2c(COc3ccc(C)cc3)nnc2SCc2ccc(C#N)cc2)cc1,6,x,i,3,-8,-6,-9,-11,
Cc1cc(C)c2nc(N3CCN(C)CC3)c(C#N)cc2c1,x,-54,i,-16,9,5,-9,-4,

# Carrying on.
SMILES,CSC inhib,HIV Env fusion,Rce1 inh,Yeast UUG start,PABP FP inh,eIF4H inh,MT1-MMP act inh,MT1-MMP act inh RFP,others
Cc1cccc(NC(=O)CN2C(=O)C(C)Oc3ccccc32)n1 (stereo unspecified),0,2,i,x,4,0,1,4,
Cc1ccc(C(=O)c2cc([N+](=O)[O-])ccc2N2CCOCC2)cc1C,67,-40,i,x,-2,-15,0,-13,
Cc1ccccc1NC(=O)Cc1nc(COC(=O)CCNS(=O)(=O)c2ccccc2)cs1,-18,-11,i,-21,x,x,2,5,
CC(C)(C)OC(=O)N1Cc2ccccc2C[C@H]1C(=O)NC1CCCC1,3,9,i,-11,-1,4,1,2,
Cc1ccc(C(=O)O/N=C(\N)c2ccc(C(F)(F)F)cn2)cc1,x,-11,i,-12,-1,13,0,-4,
CCOC(=O)C1=C(CN2CCOCC2)NC(=O)NC1c1cccc([N+](=O)[O-])c1 (stereo unspecified),-7,-1,i,-8,-6,-6,1,1,
O=S(=O)(NCc1cccnc1)c1ccc(Cl)c2ccccc12,-7,4,i,-19,0,-5,2,-1,
CC(=O)c1ccc(NC(=S)NCCCn2ccnc2)cc1,-10,3,i,x,-7,-9,1,0,
CC1=C(C(=O)OCc2ccccc2)C(c2cccc(Br)c2)NC(=O)N1 (stereo unspecified),-1,16,i,-18,-3,-1,-1,-7,
CN(Cc1ccccc1)S(=O)(=O)c1ccc(NC(=O)C2CCCO2)cc1 (stereo unspecified),-13,x,i,-14,-4,-7,1,-4,
COc1ccc(CCC(=O)NCCNC(=O)CCc2ccc(OC)cc2)cc1,-10,-1,i,-13,4,-6,3,-1,
O=C1C=CC(=O)N1Cc1cccnc1,x,9,x,12,x,x,8,-2,
O=C(NC1=NCCS1)c1ccc(Cl)cc1,-8,-18,i,0,-2,-4,4,3,
COc1cccc(C2C(C#N)=C(N)N(N(C)C)C3=C2C(=O)CCC3)c1 (stereo unspecified),-15,-11,i,-12,-8,-6,0,2,
COc1cc(CNc2ccc3[nH]c(=O)[nH]c3c2)ccc1OCc1ccccc1C,14,-22,i,-8,-2,-1,-11,0,
CCOc1ncccc1C(=O)OCc1ccc(Cl)cc1,13,x,i,x,9,10,-3,4,
COCCN=C1Sc2nc3ccc(C)cc3cc2CN1Cc1ccco1,3,-21,i,-13,27,6,-2,-3,
Cc1[nH]c2ccccc2c1SCCNC(=O)c1ccc(Br)o1,x,x,i,x,8,-6,-7,-9,
C[C@]12CC[C@H](O)C[C@@H]1CC[C@@H]1[C@@H]2CC[C@@]2(C)[C@H]1CCC(=O)[C@]21CCCO1,x,-4,x,-12,x,x,2,-2,
Cc1onc(-c2ccccc2)c1NC(=O)Nc1ccc(OC(F)F)cc1,-11,2,i,-4,-7,-8,5,1,
CCOc1ccccc1NC(=O)c1ccc([N+](=O)[O-])cc1,-14,x,i,x,5,-12,x,x,
COc1ccc(S(=O)(=O)N2CCN(C(=O)c3ccc(C)o3)CC2)cc1,x,4,i,2,8,0,-1,1,
Nc1c(-c2cccs2)nc2ccccn12,x,-2,x,-13,x,x,3,4,
CCCCNC(=O)Cn1cnc2sc(C)c(S(=O)(=O)N3CCN(c4ccccc4OC)CC3)c2c1=O,-9,12,i,-20,12,1,-1,2,
CC(C)Nc1nnc(SCC(=O)Nc2sccc2C#N)s1,6,-7,x,-14,x,x,-2,2,
Cc1cccc(C(=O)NC2CC3CCCC(C2)N3S(=O)(=O)c2ccccc2)c1 (stereo unspecified),7,x,i,4,-11,-8,-8,-11,
COc1ccc(S(=O)(=O)N/N=C/c2ccc(OCCN3CCOCC3)c(OC)c2)cc1,x,2,i,x,-10,-9,2,-1,
CCOC(=O)Cc1csc(NC(=O)C2CCCCC2C(=O)O)n1 (stereo unspecified),-6,x,i,-11,4,5,1,-2,
C=CCNC(=O)C(=O)Nc1cc2c3c(c1)CCC(=O)N3CCC2,-6,-10,i,-8,-2,-7,4,2,
O=c1c2cnn(-c3ccccc3)c2ncn1Cc1ccccn1,-8,x,i,-11,1,10,0,-9,
O=C(OCc1cccc(C(F)(F)F)c1)c1cc(S(=O)(=O)N2CCOCC2)ccc1F,-7,2,i,-11,x,x,-2,1,
COc1cc(C(=O)NCCC(=O)NC(C)CCc2ccccc2)cc(OC)c1OC (stereo unspecified),-5,-1,i,-6,x,x,0,2,
COc1oc(-c2ccc(Cl)cc2)nc1C(F)(F)F,-6,-119,x,-24,6,16,-1,4,
CC(C)CN(C(=O)CCNC(=O)c1ccc(Cl)cc1)C1CCS(=O)(=O)C1 (stereo unspecified),x,3,x,2,x,x,0,0,
Cc1cc(C)c(CC(=O)c2ccccc2)c(C)c1,x,-1,x,-19,x,x,-1,0,
CCOc1ccc(C(=O)NCCC(=O)NCCCC(=O)O)cc1,4,x,x,x,16,8,9,3,
COc1cccc(-c2nc(NCCN3CCOCC3)c3ccccc3n2)c1O,6,-79,i,11,10,0,18,-4,
CN(C)c1ccc(-c2nn3c(C4CCCCC4)nnc3s2)cc1,-3,12,i,-14,-7,3,2,2,
O=C(Nc1ccccc1C(=O)O)c1cc(S(=O)(=O)N2CCCCC2)cs1,-3,x,i,-15,19,6,0,0,
CCC(C)(C)c1nnc(NC(=O)C2CCN(C(=O)c3ccco3)CC2)s1,x,5,i,-3,-5,-4,-1,-6,
COc1ccc(C(=O)N/C(=C\c2ccc(Cl)cc2)C(=O)NCC2CCCO2)cc1 (stereo unspecified),-4,-2,i,7,1,9,-5,-1,
Cc1ccc(-c2csc(NC(=O)c3cc([N+](=O)[O-])ccc3N3CCOCC3)n2)cc1,-14,-21,i,-11,9,2,4,-2,
C=CCn1c(SCC(=O)Nc2ccc(C(=O)O)cc2)nc2scc(-c3ccccc3)c2c1=O,-5,5,x,-6,x,x,-3,4,
Cc1ccc(C)c(NC(=O)c2ccc3c(c2)CCN3S(C)(=O)=O)c1,x,8,x,-22,x,x,3,4,
CN1C(=O)CSc2ccc(NC(=O)NCc3ccccc3)cc21,x,-19,i,x,4,0,7,0,
COc1ccc(OC)c(NC(=O)COC(=O)/C=C/c2ccco2)c1,7,x,x,-23,x,x,3,3,
CCN(CC)Cc1c(C(=O)N/N=C/c2cccc(OCc3ccc(F)cc3)c2)nnn1-c1nonc1N,-1,-7,i,2,-4,-18,0,-2,
OCCN1CCN(CC(O)C(F)(F)F)CC1 (stereo unspecified),-5,7,i,x,68,0,2,4,eIF4H inh retest=-2;PABP FP inh retest=2
COc1cc(CC(NC(C)=O)C(=O)NC2CCN(S(=O)(=O)c3ccc(NC(C)=O)cc3)CC2)cc(OC)c1 (stereo unspecified),-4,-23,i,0,7,8,0,1,
O=C(N/N=C/c1cccc(F)c1)NC1CCCCC1,4,-28,i,x,-8,-10,-3,-2,

# More results.
SMILES,CSC inhib,HIV Env fusion,Rce1 inh,Yeast UUG start,PABP FP inh,eIF4H inh,MT1-MMP act inh,MT1-MMP act inh RFP,others
CCC1(c2ccccc2)NC(=O)N(CC(=O)Nc2cc(Cl)ccc2N2CCOCC2)C1=O (stereo unspecified),8,-4,i,x,x,x,4,-4,
O=C(NC1CCCCC1)c1sc(N2CCOCC2)nc1-c1ccccc1,20,-3,i,x,7,8,-2,-2,
CC(NC(=O)c1cccc(S(=O)(=O)N2CCc3ccccc3C2)c1)c1ccco1 (stereo unspecified),5,x,x,-6,x,x,-1,1,
COc1ccccc1NC(=O)CSc1nc2ccccc2cc1Cc1ccccc1,8,x,i,-7,-5,-6,-1,-5,
COc1ccccc1NC(=S)NC(=O)c1ccc(-c2ccc(Cl)cc2)o1,-6,x,i,-9,-5,-5,8,5,
CCOC(=O)C1CCCN(C(=O)c2ccc3c(c2)CCO3)CC1 (stereo unspecified),x,26,x,-7,x,x,2,4,
O=C(COc1ccc(S(=O)(=O)N2CCCC2)cc1)Nc1ccc2c(c1)OCCO2,-2,20,i,8,-13,-3,1,-4,
COc1ccc(S(=O)(=O)Nc2cccc(N(C)S(C)(=O)=O)c2)cc1C,-16,6,i,x,8,2,0,-8,
CCOc1nc(Nc2ccc(OC)c(Cl)c2)nc(N2CCN(c3ccc(OC)cc3)CC2)n1,3,x,i,5,0,-8,-13,-16,
Cc1ccc(-n2c(C3CC3c3ccc(Cl)cc3)n[nH]c2=S)cc1 (stereo unspecified),-8,x,i,-21,4,-4,4,-1,
COc1ccc(N(CC(=O)Nc2cc(OC)ccc2OC)S(C)(=O)=O)cc1,-17,-27,x,x,-12,-7,5,7,
